Cdc25B block = human M-phase inducer phosphatase 2 inhibition; hit rate 0.1% among 65,000; P30305; inhibition, %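 (compounds tested at 10 µM final in the well)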; recombinant Cdc25B, OMFP fluorescence Ex485/Em525; AID 368; in the data active = inhibition above about 50%
Target sequence (P30305 whole entry, looked up): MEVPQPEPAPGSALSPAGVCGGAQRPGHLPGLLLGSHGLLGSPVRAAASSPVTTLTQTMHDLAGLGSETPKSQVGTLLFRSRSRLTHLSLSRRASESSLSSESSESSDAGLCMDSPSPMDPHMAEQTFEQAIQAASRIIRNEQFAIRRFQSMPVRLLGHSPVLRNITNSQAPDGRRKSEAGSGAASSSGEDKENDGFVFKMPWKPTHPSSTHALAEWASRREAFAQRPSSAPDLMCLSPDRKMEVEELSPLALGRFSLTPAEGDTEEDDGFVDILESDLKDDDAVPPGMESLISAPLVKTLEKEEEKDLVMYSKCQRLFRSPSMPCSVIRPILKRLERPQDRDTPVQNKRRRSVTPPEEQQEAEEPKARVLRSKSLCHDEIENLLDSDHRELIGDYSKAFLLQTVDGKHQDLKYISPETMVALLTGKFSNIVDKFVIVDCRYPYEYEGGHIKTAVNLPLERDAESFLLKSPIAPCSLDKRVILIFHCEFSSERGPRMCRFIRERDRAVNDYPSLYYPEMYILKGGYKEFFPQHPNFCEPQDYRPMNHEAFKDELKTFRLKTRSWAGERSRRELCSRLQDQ
A340 absorber = compound absorbs light at 340 nm; compound absorbance at 340 nm, fold over control; fold change at 10 µM; 65,000 tested, under 10 active; AID 708;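 active = at 10 µM dose, initial 340 nm absorbance at least 2 fold that of control wells; inactive = change under 2 fold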;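 note: initial absorbance extrapolated from kinetic A340 decline of NADH oxidation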
Hsp90 inh = displaces geldanamycin probe from tumor Hsp90 | P07900 | NCI-N417 lysate Hsp90, Cy3B-geldanamycin FP displacement | inhibition, % at 30 µM | hit rate 0.35% among 64,000 | AID 429;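 active = inhibition above 50%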;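 note: 0% = tracer plus lysate wells and 100% = tracer alone without lysate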
DUSP1 inh = inhibitors of human MKP-1 phosphatase. recombinant MKP-1, OMFP hydrolysis fluorescence. hit rate 0.15% among 65,000. inhibition, %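 (compounds tested at a single concentration somewhere between 10 and 100 µM)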. P28562. AID 374;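 active = inhibition above about 50%, limit read from the data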;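 note: 0% = DMSO max control wells and 100% = wells with enzyme stopped by NaOH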
Target sequence (P28562 whole entry, looked up): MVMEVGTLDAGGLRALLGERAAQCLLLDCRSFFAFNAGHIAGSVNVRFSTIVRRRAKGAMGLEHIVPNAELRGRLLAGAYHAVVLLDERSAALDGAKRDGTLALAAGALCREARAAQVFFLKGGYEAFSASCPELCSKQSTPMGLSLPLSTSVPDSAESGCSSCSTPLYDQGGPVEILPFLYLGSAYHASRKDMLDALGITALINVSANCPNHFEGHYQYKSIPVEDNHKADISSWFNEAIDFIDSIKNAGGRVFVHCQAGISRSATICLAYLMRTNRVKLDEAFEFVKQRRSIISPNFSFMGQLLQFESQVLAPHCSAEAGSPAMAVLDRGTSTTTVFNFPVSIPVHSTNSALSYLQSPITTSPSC
AP complement = orthogonal test for alternative complement pathway inhibitors; Human serum alternative complement pathway, LPS-coated ELISA, C3 deposition; tested in compound mixtures; inhibition, % at 5 µM; hit rate 0.08% among 62,000; AID 1235;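 active = inhibition above 30% in each of the two pooled mixtures holding the compound, so the lower value exceeds 30%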;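 note: 0% = serum in Mg-EGTA without compound and 100% = EDTA serum blank; some compounds past the cut are filed as inactive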
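Assay system: human serum alternative complement pathway, C3 deposition on LPS-coated wells; Dosing: 5 µM per compound in ten-compound mixtures; Detection: Anti-C3 ELISA, OD 450 nm; Buffer or medium: Mg2+-EGTA GVB++ buffer containing human serum at 1:15 dilution; Timing: 1 h at 37 °C; Replication: two different pools per compound.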
MMP-13 inhibitor = MMP13 (human) collagenase inhibition | P45452 | MMP-13 fTHP FRET cleavage, Mca fluorescence | inhibition, % at 4 µM | hit rate 0.07% among 65,000 | AID 570;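 active = inhibition above the mean of compound-free control plate wells plus 3 SD, cut at about 14% in these data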;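 note: 0% = DMSO wells and 100% = wells with reference MMP-13 inhibitor after basal subtraction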
* marks the source's active call; other numbers are inactive results; i = inactive; . = no result given; [ ] = another dose, or the depositor's remark.

SMILES | Cdc25B block | A340 absorber | Hsp90 inh | DUSP1 inh | AP complement | MMP-13 inhibitor
CCOC(=O)COc1cc2c3c(c(=O)oc2cc1C)CCCC3 | -10 | 1.1 | -4 | 6 | 18 | -14
CC(=O)c1ccccc1OC(=O)c1ccco1 | -2 | 1 | 1 | 7 | 1 | 3
Cc1nn(C(=O)c2ccc3c(c2)OCO3)c(N)c1-c1ccccc1 | 7 | 1 | -1 | -15 | 2 | 6
O=C(c1ccccc1)c1nc[nH]c1C(=O)Nc1ccccc1 | -1 | 0.97 | 0 | -15 | 7 | -1
COc1ccc(C(=O)n2nc(-c3ccc(Cl)cc3)nc2N)cc1OC | -13 | 1.1 | -11 | 9 | 6 | 7
COc1nc(NCCc2ccc(OC)c(OC)c2)nc(OC)n1 | -2 | 1 | -4 | -2 | -1 | 3
CC(=O)n1nc2nc(C)cc(C)c2c1N | -7 | 1 | 2 | 4 | -7 | 6
Cn1c(-c2ccc3c(c2)OCO3)cnc1NC(=O)CCC(=O)NCCc1ccccc1 | 10 | 1 | -4 | 30 | 16 | -4
C=CCn1c(COc2ccccc2)nnc1SCC(=O)Nc1ccc(S(N)(=O)=O)cc1 | -19 | 1 | -4 | 14 | 1 | -1
N#CCCN(CCC#N)C(=O)c1ccc2c(c1)OCO2 | -7 | 1 | -2 | 4 | 25 | -1
Cc1nc2ccc(NC3=NCCCCC3)cc2s1 | -3 | 1 | 0 | 8 | 23 | 0
Nc1cc(OC(=O)c2cccs2)nn1S(=O)(=O)c1ccc(F)cc1 | -6 | 1 | 2 | 1 | 7 | 2
CC1=C(C(N)=O)C(c2cccc(OCc3ccccc3)c2)n2nnnc2N1 (centres undefined) | 0 | 0.99 | 0 | -13 | 19 | 2
O=C(CN1CCOCC1)Nc1ncc(Br)cc1Br | 2 | 0.99 | -4 | -1 | -21 | 2
COc1ccc(C(=O)n2nc(-c3ccc(C)cc3)nc2N)cc1OC | -16 | 1 | -2 | 10 | 14 | 2
Cc1ccnc2nc(C(=O)N3CCN(S(=O)(=O)c4ccccc4)CC3)nn12 | -16 | 0.97 | -6 | 3 | 1 | -2
O=C(NCc1cccnc1)C1CC(c2ccc(F)cc2)=NO1 (centres undefined) | -29 | 1 | 0 | -2 | 21 | -2
COC(=O)c1ccc(OC(=O)c2ccccn2)cc1 | -2 | 1.3 | -1 | -1 | 8 | 4
COC(=O)Cc1cc(=O)[nH]c(/N=C(\N)Nc2ccc(C)cc2C)n1 | -2 | 1 | -4 | 17 | 3 | -2
COc1cccc(C(=O)Oc2cc(N)n(S(=O)(=O)c3ccc(C)cc3)n2)c1OC | 3 | 1 | -5 | 12 | 8 | -1
COc1ccccc1C1C(C#N)=C(N)Oc2cc(C)n(CCCn3ccnc3)c(=O)c21 (centres undefined) | 2 | 1 | -4 | -20 | 9 | 7
Cn1c(C(=O)NCC2CCCO2)cc2c(=O)n3ccccc3nc21 (centres undefined) | -8 | 1.1 | -5 | 6 | 21 | i[fluorescence artefact?]
COc1ccc(N=CC2=C(O)CCCC2=O)cc1 | 4 | 1.1 | 1 | 3 | 8 | -2
COc1ccc(C(=O)n2nc(C)cc2C)cc1OC | 0 | 1.1 | -9 | -2 | 2 | 9
CC(=O)Nc1ccc(C(=O)n2nc(C)cc2C)cc1 | -5 | 1 | 0 | -1 | 3 | -3
Cc1cc(C)c(S(=O)(=O)Nc2cccnc2)c(C)c1 | 6 | 0.97 | -4 | -12 | 9 | 5
COc1cc(C)c(S(=O)(=O)NCc2ccc3c(c2)OCO3)cc1C | -4 | 1 | -3 | -7 | 10 | 3
COc1ccc(CNc2nc(-c3cccnc3)nn2C(=O)c2ccco2)cc1 | 0 | 1 | 0 | 21 | 8 | 6
O=C(c1ccc(COc2ccc(F)cc2)o1)n1cccn1 | -11 | 0.99 | -4 | -6 | 3 | 0
O=C1CC(N2CCC(c3nc4ccccc4[nH]3)CC2)C(=O)N1Cc1ccccc1 (centres undefined) | -11 | 1 | -2 | 23 | -10 | 4

Compound profiles, from the list above. Order of screens: Cdc25B block, A340 absorber, Hsp90 inh, DUSP1 inh, AP complement, MMP-13 inhibitor
Shown for COc1cc(C)c(S(=O)(=O)NCc2ccc3c(c2)OCO3)cc1C : -4, 1, -3, -7, 10, 3
Shown for O=C(NCc1cccnc1)C1CC(c2ccc(F)cc2)=NO1 (centres undefined) : -29, 1, 0, -2, 21, -2
Shown for Cn1c(C(=O)NCC2CCCO2)cc2c(=O)n3ccccc3nc21 (centres undefined) : -8, 1.1, -5, 6, 21, i[fluorescence artefact?]
Shown for O=C1CC(N2CCC(c3nc4ccccc4[nH]3)CC2)C(=O)N1Cc1ccccc1 (centres undefined) : -11, 1, -2, 23, -10, 4

(more compounds)
SMILES | Cdc25B block | A340 absorber | Hsp90 inh | DUSP1 inh | AP complement | MMP-13 inhibitor
COC(=O)C(C)NC(=O)C(C)NC(=O)OCc1ccccc1 (centres undefined) | -12 | 1 | 1 | 1 | 16 | 3
CSc1nc(-c2ccco2)nn1S(=O)(=O)c1ccc(C)cc1 | -5 | 1.1 | -4 | 3 | 21 | 4
Cc1nc2ccc(NC(=O)NCc3ccco3)cc2s1 | -7 | 0.99 | -8 | 4 | 11 | -3
CCNC(=O)CC1C(=O)N(c2ccc(F)cc2)C(=O)N1Cc1ccccn1 (centres undefined) | -6 | 0.95 | -1 | 2 | 11 | 0
CCOC(=O)c1cc(OC(=O)c2cccnc2)n(-c2ccccc2)n1 | -10 | 1.1 | -3 | 9 | 11 | 1
CCN(CC)S(=O)(=O)c1cc(C(=O)n2cccn2)c(Cl)cc1Cl | -10 | 1.1 | -5 | -4 | 1 | 2
CCOC(=O)c1cnc(SCC)[nH]c1=O | -14 | 1.1 | 0 | -15 | 7 | 0
O=C(NCc1ccc(F)cc1)C1CCN(C(=O)NCc2ccccc2)CC1 | 1 | 0.98 | 2 | -14 | 4 | -3
COc1nc(OC)nc(N2CCC(C(=O)NC3CCCCCC3)CC2)n1 | -13 | 0.98 | 0 | -2 | 2 | 2
Clc1cccc(Nc2ncnc3c2cnn3-c2ccccc2)c1 | 5 | 1 | -2 | 11 | 16 | -31
Cc1nc2sc3c(c2c2nnc(SCC(=O)NCc4ccco4)n12)CCCC3 | 7 | 0.98 | -3 | 19 | 3 | 4
COCc1cc(=O)[nH]c(/N=C(\N)Nc2ccc(C)cc2)n1 | -4 | 1 | -2 | -5 | -21 | 4
CCn1c(COc2cccc(C)c2)nnc1SCC(=O)Nc1cccc(C(=O)O)c1 | -5 | 1.1 | 4 | 4 | 4 | 1
COc1ccc(C(=O)CSc2nnc(CNC(=O)c3ccc(OC)c(OC)c3)n2C)cc1 | -10 | 1 | 1 | 74* | 11 | 1
O=c1c2ccccc2nc(-c2ccccc2)n1CCN1CCOCC1 | -4 | 1 | 0 | -12 | -3 | -5

A draw from above in order of SMILES length, falling:
SMILES | Cdc25B block | A340 absorber | Hsp90 inh | DUSP1 inh | AP complement | MMP-13 inhibitor
CCNC(=O)CC1C(=O)N(c2ccc(F)cc2)C(=O)N1Cc1ccccn1 (centres undefined) | -6 | 0.95 | -1 | 2 | 11 | 0
CCN(CC)S(=O)(=O)c1cc(C(=O)n2cccn2)c(Cl)cc1Cl | -10 | 1.1 | -5 | -4 | 1 | 2
CCOC(=O)c1cc(OC(=O)c2cccnc2)n(-c2ccccc2)n1 | -10 | 1.1 | -3 | 9 | 11 | 1
O=c1c2ccccc2nc(-c2ccccc2)n1CCN1CCOCC1 | -4 | 1 | 0 | -12 | -3 | -5

Rewritten with two lines to a compound: 5 of the compounds above
Each structure is followed by: Cdc25B block | A340 absorber | Hsp90 inh | DUSP1 inh | AP complement | MMP-13 inhibitor
- CCOC(=O)COc1cc2c3c(c(=O)oc2cc1C)CCCC3
    -10 | 1.1 | -4 | 6 | 18 | -14
- C=CCn1c(COc2ccccc2)nnc1SCC(=O)Nc1ccc(S(N)(=O)=O)cc1
    -19 | 1 | -4 | 14 | 1 | -1
- COc1ccc(C(=O)CSc2nnc(CNC(=O)c3ccc(OC)c(OC)c3)n2C)cc1
    -10 | 1 | 1 | 74* | 11 | 1
- Nc1cc(OC(=O)c2cccs2)nn1S(=O)(=O)c1ccc(F)cc1
    -6 | 1 | 2 | 1 | 7 | 2
- Cn1c(-c2ccc3c(c2)OCO3)cnc1NC(=O)CCC(=O)NCCc1ccccc1
    10 | 1 | -4 | 30 | 16 | -4

(list continues)
SMILES | Cdc25B block | A340 absorber | Hsp90 inh | DUSP1 inh | AP complement | MMP-13 inhibitor
COc1ccc(-c2cc(C(F)(F)F)nc(NCc3ccco3)n2)cc1OC | -10 | 1.1 | . | 3 | 6 | -10
Cc1nn(-c2ccccc2)c2c1/C(=N/O)CC(C)(C)C2 | 0 | 1 | -4 | -7 | 15 | -6
CCOC(=O)N1CCN(C(=O)C2CCN(S(=O)(=O)N3CCCC3)CC2)CC1 | -8 | 1 | 0 | 29 | 5 | 3
COC(=O)CSc1ncc(C#N)c(N)n1 | 3 | 1.1 | -8 | 21 | 11 | -3
Cc1ccnc(N2CCC(C(=O)NC3CCCCCC3)CC2)n1 | -9 | 1 | -7 | -9 | -3 | -5
Cc1ccc(S(=O)(=O)n2nc(OC(=O)c3ccco3)cc2N)cc1 | 3 | 0.99 | 2 | 3 | -8 | 0
CC(C)Sc1nc2sc3c(c2c2nnc(SCC(=O)NCc4ccco4)n12)CCCC3 | 15 | 1.1 | -9 | 54* | 13 | -2
N#Cc1ccc(NC(=O)C2CC(c3ccc(F)cc3)=NO2)cc1 (centres undefined) | 4 | 1 | 1 | -5 | 4 | -1
O=C(NCc1ccco1)c1nc2nc(-c3cccs3)cc(C(F)(F)F)n2n1 | 3 | 1.2 | -7 | 15 | 3 | -197[fluorescence artefact?]
COc1cc(NC(=O)c2ccc(Br)o2)c(C(=O)O)cc1OC | -3 | 1.1 | 1 | 1 | 15 | 2
O=C(O)c1cc2nc(-c3ccccc3)cc(C(F)(F)F)n2n1 | -4 | 1 | 3 | -14 | 7 | 1
COc1ccc(/C=N/n2c(=O)[nH]c3c([nH]c4ccc(C)cc43)c2=O)cc1CN1CCOCC1 | -3 | 1 | -6 | 9 | -4 | -94[fluorescence artefact?]
COCCn1c(SCc2cnc(-c3ccccc3)s2)nnc1-c1ccncc1 | -8 | 1 | 0 | -1 | 2 | 2
Cc1cc(=O)oc(C)c1C(=O)NCC1CCCO1 (centres undefined) | 4 | 1.1 | 1 | -30 | 22 | -2
O=C(NCCCN1CCOCC1)c1ccc(CNS(=O)(=O)c2ccc(F)cc2)cc1 | -5 | 0.97 | -3 | -2 | 9 | -3

Retrieved by compound from the entries so far (2):
SMILES | Cdc25B block | A340 absorber | Hsp90 inh | DUSP1 inh | AP complement | MMP-13 inhibitor
Cc1ccc(S(=O)(=O)n2nc(OC(=O)c3ccco3)cc2N)cc1 | 3 | 0.99 | 2 | 3 | -8 | 0
Cc1cc(=O)oc(C)c1C(=O)NCC1CCCO1 (centres undefined) | 4 | 1.1 | 1 | -30 | 22 | -2

(cont.)
SMILES | Cdc25B block | A340 absorber | Hsp90 inh | DUSP1 inh | AP complement | MMP-13 inhibitor
Nc1nc(-c2cccnc2)nn1S(=O)(=O)c1ccccc1 | -20 | 1.1 | -1 | -17 | 20 | -8
Cc1ccc(OCc2nnc(SCC(=O)Nc3ccc4c(c3)OCCO4)n2Cc2ccco2)cc1 | -6 | 0.98 | -3 | 29 | 10 | 4
COC(=O)c1ccc(C2CC(=O)NC3=C2C(=O)CCC3)cc1 (centres undefined) | -6 | 0.99 | -1 | 7 | 14 | -2
COc1ccc(C(=O)CSc2nnc(CNC(=O)c3ccc(OC)cc3)n2C)cc1 | -8 | 1.1 | -3 | 2 | 12 | 5
C1CCC(n2nnnc2CN2CCN(C3CCCC3)CC2)CC1 | -13 | 1 | 2 | 5 | 19 | -9
Cn1nnc2cc(C(=O)NC3CCCCC3)ccc21 | -9 | 1 | -10 | 21 | 4 | 10
CN1C(=O)CS(=O)c2ccc(C(=O)NC3CC3)cc21 (centres undefined) | 8 | 1 | -1 | 1 | 19 | 1
CCCN1CCN(C(=O)CCCNC(=O)Cn2cnc3sc(C)c(C)c3c2=O)CC1 | -4 | 1 | -2 | 1 | 12 | 5
CCCNC(=O)CCC(=O)Nc1ncc(-c2ccc(C)cc2)n1C | 6 | 1 | -6 | 31 | 12 | 2
CCC(=O)n1nc(-c2ccco2)nc1SCc1ccccc1 | -4 | 1.1 | -7 | 9 | 8 | 3
c1ccc2c(c1)CCCN2Cc1nnc2n1CCCCC2 | -3 | 1 | . | 12 | 4 | 6
COc1cc(/C=C(/C#N)c2ccc(F)cc2)ccc1OCc1ccc(C(=O)O)o1 | -3 | 1.4 | -4 | 62* | -6 | 6

Only part of the results is shown; rates above refer to the full screens.
